# Sa helicase inh: S. aureus DNA helicase inhibition | purified S. aureus helicase, fluorescence unwinding assay; about half of the hits fall short of the stated cut | inhibition, %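 (tested at about 80 µM)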 | hit rate 0.05% among 120,000;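 active = both duplicates at 50% or more, or one of them with a favoured structure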;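 note: 0% = mean of negative control wells and 100% = mean of positive control wells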
# MgrA DNA FP: modulators of Staphylococcus aureus MgrA DNA binding | hit rate 0.13% among 84,000 | AID 602314 | inhibition, %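 (about 10 µg/mL by stock and volumes)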 | fluorescence polarization;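 active = above 50% in either of two replicates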;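 note: 0% = protein plus DNA without compound and 100% = DNA alone without protein; higher means less MgrA bound to DNA so lower polarization; one replicate is shown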
# * marks the source's active call; other numbers are inactive results; x = no result given; & = joins results of further samples. An excerpt; the hit share may differ from the screen's.
# Sequence of screens – MgrA DNA FP	Sa helicase inh
- CCOc1ccc(/C=C2/C(=O)N(C)C(=S)N2CC(=O)OC)c(OCC)c1
    3.0	-8
- COC(=O)c1cc(=O)n(C)c(=Nc2ccc(F)c(F)c2)s1
    x	9
- O=C(CSc1nccn1-c1ccc(Cl)cc1)NCc1ccco1
    x	12
- COc1ccc(-n2nc(C(=O)N3CCCC3)c3c4ccccc4n(C)c3c2=O)cc1
    x	15
- Cc1ncsc1CCSc1n[nH]c(=O)n1-c1ccccc1
    x	10
- CC(=O)N1CCC(C(=O)c2ccc(F)cc2F)CC1
    -0.9	x
- O=C(/C=C1\SC(=O)N(Cc2ccc(F)cc2)C1=O)Nc1nccs1
    x	11
- O=C(Cn1nnc(-c2ccccc2)n1)c1ccccc1
    x	14
- CCCC12CN3CC(CCC)(CN(C1)C3c1ccc3c(c1)OCO3)C2=O (configuration not stated)
    0.2	6
- OC1(C(F)(F)F)CC(c2cc3ccccc3o2)=NN1 (configuration not stated)
    x	-3

# (next part)
# Sequence of screens – MgrA DNA FP	Sa helicase inh
- c1cncc(-c2nc(-c3ccco3)cs2)c1
    3.5	-16
- O=C(NN1CC(=O)N(c2ccccn2)C1=O)C(c1ccccc1)c1ccccc1
    -3.0	2
- O=C(NCC1CCCO1)c1ccc(Cn2c(=S)[nH]c3ccccc3c2=O)cc1 (configuration not stated)
    0.3	3
- Cc1cccc(Oc2coc3cc(O)ccc3c2=O)c1
    x	-17
- COc1ccc(Cn2c(=O)[nH]c3cc(C(=O)NC4CCCC4)ccc3c2=O)cc1
    x	-20
- Cn1c(CNS(=O)(=O)c2ccc(F)cc2)nnc1SCc1ccccc1
    -4.1	7
- O=C(CCc1cn(Cc2ccc(F)cc2)c2ccccc12)N1CCOCC1
    1.8	-7
- Cc1cc(-c2ccc(S(=O)(=O)Nc3cccc(Br)c3)cc2)on1
    x	-20
- Cc1cc(N2CCC(C(=O)NCCN3CCOCC3)CC2)n2nc(C)c(-c3ccc(Cl)cc3)c2n1
    x	17
- Clc1cccc(-n2nnc(-c3ccccc3)n2)c1
    0.7	10

# Following part:
# Sequence of screens – MgrA DNA FP	Sa helicase inh
- C=CCNC1CCS(=O)(=O)C1 (configuration not stated)
    -1.8	5
- N#CCSC1=Nc2ccccc2C2=NC(CCC(=O)NCc3ccccc3)C(=O)N12 (configuration not stated)
    -1.2	5
- CC1(C)CC(=O)c2c(noc2-c2ccccc2)C1
    x	6
- O=C(COc1ncnc2cc(Cl)ccc12)c1ccccc1
    -0.8	x
- CN(CC(=O)Nc1ccc(F)cc1)C(=O)CSc1nnc(Cc2ccccc2)o1
    x	4
- Cc1ccn(CCC(=O)Nc2cccc(C(F)(F)F)c2)n1
    x	1
- O=C(O)CC(c1ccncc1)c1c[nH]c2ccccc12 (configuration not stated)
    -11	3
- COc1cccc(-c2nnc(NC(=O)c3ccc(S(=O)(=O)N4CCCCC4C)cc3)o2)c1 (configuration not stated)
    4.6	4
- CN1CCN(c2ccc(NC(=O)CSc3ccc(Cl)cc3)cc2)CC1
    -1.2	10
- O=C(c1ccccc1)N1CCN(c2ncccn2)CC1
    x	-7

# Following part.
# Sequence of screens – MgrA DNA FP	Sa helicase inh
- Cc1cc(C(C)(C)C)cc(C)c1C#N
    -0.8	x
- COCC(C)n1c(C)cc(C(=O)COC(=O)c2ccc3c(c2)S(=O)(=O)N=C2CCCCCN23)c1C (configuration not stated)
    x	17
- Cc1ccc(C(=O)/C=C/Nc2ccc(C(F)(F)F)cc2)cc1
    -2.0	x
- Cc1cc(C)c2c(-n3cccc3)n[nH]c2n1
    -2.1	x
- CCOC(=O)C1CCCN(C(=O)c2cccc3ccccc23)C1 (configuration not stated)
    -0.2	-10
- CCOC(=O)c1cnc(O/N=C/c2ccc(F)cc2)nc1C(F)(F)F
    x	-7
- COC(=O)c1ccc(Oc2cc(Cl)cc(Cl)c2)o1
    -1.4	x
- CCN(CC)S(=O)(=O)c1ccccc1
    x	-5
- CCOC(=O)C1=C(CSc2nc(-c3ccncc3)ccc2C#N)OC(N)=C(C#N)C1c1cccnc1 (configuration not stated)
    2.1	x
- O=C(CCCCn1c(=O)[nH]c2ccsc2c1=O)NCC1CCCO1 (configuration not stated)
    x	4

# (continued)
# Sequence of screens – MgrA DNA FP	Sa helicase inh
- Cc1onc(-c2ccccc2)c1C#N
    0.7	x
- CNC(=O)n1ccc(C(=O)N2CCCCC2)n1
    -1.6	14
- O=C(CN(CC(=O)Nc1ccc2c(c1)OCCO2)S(=O)(=O)c1ccccc1)Nc1ccc2c(c1)OCCO2
    x	-1
- CC(SCC(=O)NC12CC3CC(CC(C3)C1)C2)C(=O)O (configuration not stated)
    -4.4	-1
- Cc1cc(C)c(S(=O)(=O)n2ccnc2)c(C)c1
    x	1
- CCN(CC)c1cccc(OCC(=O)NCc2cccs2)c1
    x	-5
- O=C(Cn1cnc2c(cnn2-c2ccccc2)c1=O)NC1CCCC1
    x	-3
- Cc1ccc(CNC(=O)CCCn2c(=O)c3sccc3n(CC(=O)N3CCCCC3C)c2=O)cc1 (configuration not stated)
    x	3
- O=C(O)c1cnn2c(C(F)(F)F)cc(-c3cccs3)nc12
    x	6
- CCOc1ccc(NC(C)c2cc(Cl)ccc2O)cc1 (configuration not stated)
    -0.3	13

# Next entries follow:
# Sequence of screens – MgrA DNA FP	Sa helicase inh
- COC(=O)CCn1cc(C=C2C(=O)NC(=O)NC2=O)c(-c2ccccc2)n1
    x	15
- CC(C)NC(=O)N1CCn2cccc2C1Cc1ccccc1 (configuration not stated)
    x	1
- O=C(Nc1ccc(F)cc1)NC1(C(=O)O)CCCCC1
    x	13
- CC1CCC(NC(=O)CCCn2ncn3c(cc4occc43)c2=O)CC1 (configuration not stated)
    x	-15
- CC1=NN(c2cccc(Cl)c2)C(=O)/C1=C\N1CCOCC1
    x	-8
- CCc1nn(CC(=O)N(C)Cc2ccccc2)c(=O)c2cc3occc3n12
    x	10
- CCN(CC)S(=O)(=O)c1ccc2c3c(cccc13)C(=O)S2
    x	5
- COc1ccc(O)c(C(=O)c2cnn(C(=O)c3cccc(S(=O)(=O)N4CCOCC4)c3)c2)c1
    x	7
- Cc1nc(-c2cccc(NC(=O)c3ccco3)c2)cs1
    0.2	5
- Cn1cnnc1SCC(=O)Nc1ccc(Cl)cn1
    0.9	x

# Additional compounds follow:
# Sequence of screens – MgrA DNA FP	Sa helicase inh
- CCCc1cc2c(=O)c(-c3ccc4c(c3)OCCO4)c(CC)oc2cc1O
    x	10
- Cc1nc2ncc3c(n2n1)CCc1ccccc1-3
    0.9	-11
- COC(=O)/C(=C(/O)CSc1nnc(-c2cccc(S(=O)(=O)N3CCCCC3)c2)o1)c1nc2ccccc2[nH]1
    x	-7
- CCn1nc(C(=O)N/N=C/c2cccc(OC)c2)c2ccccc2c1=O
    x	7
- CCCCN1C(=O)c2ccc(C(=O)Nc3cccnc3)cc2C1=O
    2.7	17
- COc1cc(OC)cc(C2=NC3(CCC(C)CC3)NC2=O)c1 (configuration not stated)
    x	-23
- C=CCn1c(C(C)NC(=O)CC)nc2ccccc21 (configuration not stated)
    0.8	14
- CC1CCN(C2=NN3C(=N)/C(=C\c4ccc(SCc5ccco5)o4)C(=O)N=C3S2)CC1
    x	-9
- C=CCn1c(SCC(=O)N(CCO)CCO)nc2sc3c(c2c1=O)CCC3
    2.5	x
- O=C(CC1OC(=O)c2ccccc21)NCc1ccc(Cl)cc1 (configuration not stated)
    -2.0	-22

# (more compounds)
# Sequence of screens – MgrA DNA FP	Sa helicase inh
- N#Cc1ccc(CSc2nc3ccccc3c(=O)n2Nc2ccccc2)cc1
    x	-6
- CCOC(=O)NC(=S)NCc1cccs1
    -1.9	x
- CCS(=O)c1ccccc1C(=O)OCC(=O)N1CCC(c2ccccc2)=N1 (configuration not stated)
    x	3
- COc1ccc(OC)c(C(=O)c2ccc(C(=O)O)cc2)c1
    0.2	x
- Oc1ccccc1C=Nc1ccc(Oc2ccccc2)cc1
    0.5	x
- Cc1cc(C)nc(SCCS(=O)(=O)c2nc3ccccc3s2)n1
    x	30
- O=C(CSc1nc2ccccc2c(=O)n1-c1ccc(F)cc1F)NC1CCCC1
    -0.2	-14
- CCN(CC)S(=O)(=O)c1ccc2c(c1)nc(CCC(=O)OCC(=O)c1ccc(Cl)s1)n2C
    x	-6
- O=C(Nc1cccc(Cl)c1)OC1CCCCC1
    x	-18
- Cc1ccccc1CSc1nnc2c(n1)[nH]c1ccccc12
    0.3	14

# (further entries)
# Sequence of screens – MgrA DNA FP	Sa helicase inh
- COc1cc(C=Nn2c(-c3ccc(C)cc3)n[nH]c2=S)ccc1OC(C)=O
    2.7	26
- O=C1CSC(=O)N1CCN1C(=O)CSC1=O
    -1.4	0
- O=C(C1CCN(S(=O)(=O)c2cnc[nH]2)CC1)N(CCc1ccccc1)Cc1ccccc1
    1.1	13
- COc1ccc(C(=O)NCCc2cc3c(C)ccc(C)c3[nH]c2=O)cc1OC
    x	-2
- c1ccc(CN2CN(c3nccs3)CN(c3nccs3)C2)cc1
    x	-26
- NC(=O)C1CCN(c2ncnc3sccc23)CC1
    x	14
- CC(C)(C#N)N1CCN(c2ccc(Cl)c(Cl)c2)CC1
    -0.5	x
- CC1CCc2sc(NC(=O)c3cccs3)c(C(N)=O)c2C1 (configuration not stated)
    x	-1
- CC(C)C(NC(=O)c1ccc2c(c1)OCO2)c1nnc(SCC(=O)NC2CCCCC2)n1C (configuration not stated)
    -4.8	0
- CN(C(=O)COC(=O)c1ccc(-c2ccccc2)cc1)c1ccccc1
    -1.1	-22

# Next section
# Sequence of screens – MgrA DNA FP	Sa helicase inh
- Cc1ccc(Nc2cc(C(=O)N3CC(C)CC(C)C3)c3ccccc3n2)cc1C (configuration not stated)
    -0.5	9
- COC(=O)c1ccc(COc2ccc(C#N)cc2)o1
    x	-5
- Cc1cccc(-c2nc(C#N)c(N3CCCCC3)o2)c1
    1.6	-1
- O=C(O)CN1CC(c2ccccc2)CC1=O (configuration not stated)
    x	8
- CNC(=O)COc1cccc2c(=O)[nH]ccc12
    x	-19
- CC(=O)N=c1scc(-c2ccccc2)n1-c1cccc2ccccc12
    -2.1	-6
- CC(=O)Nc1ccc(S(=O)(=O)CCC#N)cc1
    x	8
- NC(=O)C1CCN(CC(=O)NCc2ccccc2Cl)CC1
    x	-3
- CCN(CC)S(=O)(=O)c1ccc2c(c1)nc(SCc1csc(NC(C)=O)n1)n2CC
    x	-9
- Cc1cc(NS(=O)(=O)c2cccc(F)c2)n(-c2ccccc2)n1
    0.4	2

# The list goes on:
# Sequence of screens – MgrA DNA FP	Sa helicase inh
- CCOc1cc(C=C2C(=O)NC(=S)NC2=O)ccc1OCCOc1ccccc1OC
    19	x
- O=C(OCC(=O)N1c2ccccc2Sc2ccccc21)c1ccc(Br)o1
    x	6
- CCCSc1nc(C)cc(=O)[nH]1
    0.9	14&-10
- O=C(CSc1ncn[nH]1)N1N=C2/C(=C/c3ccco3)CCCC2C1c1ccco1 (configuration not stated)
    x	-13
- Cc1cc(C)n(Cc2c(Cl)cccc2Cl)n1
    3.2	x
- CCOc1cc(C(=O)Nc2ccc(O)c(-c3nc4ccccc4o3)c2)cc(OCC)c1OCC
    -1.1	x
- COc1cc(S(=O)(=O)NC2CCCCCC2)c(C)cc1C
    x	-18
- Fc1ccc(OCCc2nc(-c3ccc(Cl)cc3)no2)cc1
    2.4	x
- Cc1ccsc1C(=O)Nc1nccs1
    -0.9	11
- N#CCCCSc1nnc(-c2ccccc2F)n1-c1ccccc1
    x	5

# Other structures follow.
# Sequence of screens – MgrA DNA FP	Sa helicase inh
- CCc1ccc(OCC(=O)Nc2ccc(-c3nc4ccccc4o3)c(O)c2)cc1
    x	-14
- COc1ccc(N=c2cc(-c3ccc(OC)cc3)oc3ccc(O)cc23)cc1
    -0.6	-1
- CCOC(=O)c1sc(SCC(=O)c2ccc(Cl)cc2Cl)nc1C
    -0.8	x
- CCCc1nc2ccccc2[nH]1
    0.8	4
- CCCOC(=O)c1ccc(NC(=O)/C=C/c2ccccc2)cc1
    2.1	9
- CC(C(=O)O)n1nnc2ccccc21 (configuration not stated)
    -5.1	4
- Cc1cccc(NC(=O)CNC(=O)c2ccc3c(=O)[nH]c(CN4CCOCC4)nc3c2)c1C
    x	5
- O=S(=O)(Cc1ccccc1)N1CCC(On2nnc3ccccc32)CC1
    -2.6	2
- CCOc1cccc(OCC)c2c(C)nc(C)c1-2
    -0.8	7
- COc1ccc(Cn2c(C)c(CNC(C)(C)C)c(C(=O)O)c2C)cc1
    x	-5

# The listing continues:
# Sequence of screens – MgrA DNA FP	Sa helicase inh
- Cc1cccc(NC(=O)CSCc2n[nH]c(=O)[nH]2)c1C
    1.2	9
- NNC(=O)c1ccc(NN)cn1
    x	29
- CC(C)C(NC(=O)Cc1ccccc1)C(=O)N1CCN(S(=O)(=O)c2ccccc2C#N)CC1 (configuration not stated)
    x	9
- CC1OCC(OC(=O)c2ccccc2)CO1 (configuration not stated)
    3.4	-27
- CCc1ccc(CNC(=O)CN(C)c2nnc(N3CCCC3=O)s2)cc1
    x	16
- Cn1cnnc1SCC(N)=O
    4.0	24
- Cc1cc2nc(N3C(=N)SCC3=O)sc2cc1C
    0.9	2
- O=C(NCC(O)c1ccccc1)Nc1cccc(C(F)(F)F)c1 (configuration not stated)
    x	27

# Compound activity as filed in PubChem BioAssay.
